Bioassay records (PubChem)
PINK1 expr mod = A Quantitative High throughput Screen to Identify Chemical Modulators of PINK1 Expression; AID 624263, 2012; Potency, µM (highest dose often 76.6 µM), for the others: at the highest dose activation (PINK1 increase), most hits filed as activators; 0.2% of 410,000 active; PINK1 immunofluorescence, high-content cytometry, 24 h; active = well fitted activation curve with a large enough effect; inconclusive = small, poorly fitted or top-dose-only effect; inactive = flat fitted curve, though single readings scatter; cell line not stated here;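 further: potency means the concentration at half of the fitted maximal effect; % of control where 0% means no effect; nearly all actives have a fitted effect of over 65% in size; a mitochondrial uncoupler was the plate control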
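Stable cell line, 250 cells/well, 12 h attachment; compounds pinned at 5 concentrations, 24 h; CCCP control. Fixed with nuclear dye, primary antibodies 12 h at 10 degrees C, secondary plus cell stain; laser-scanning cytometer read.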
Six1-Eya2 inh = qHTS Assay for Inhibitors of the Six1/Eya2 Interaction | activity change, % (test concentration not listed) | 0.56% of 360,000 active | AlphaScreen GST-Six1/His-Eya2 binding, biochemical; hits give low values; control for the full effect not named in the record; in the data active = activity change below about -65%; inconclusive = about -30% to -65%; inactive = above about -30%; further: on the % scale 0 is the no-effect control and ±100 the full control effect; compound concentration not given in the record
Target sequence (O00167 whole entry, looked up): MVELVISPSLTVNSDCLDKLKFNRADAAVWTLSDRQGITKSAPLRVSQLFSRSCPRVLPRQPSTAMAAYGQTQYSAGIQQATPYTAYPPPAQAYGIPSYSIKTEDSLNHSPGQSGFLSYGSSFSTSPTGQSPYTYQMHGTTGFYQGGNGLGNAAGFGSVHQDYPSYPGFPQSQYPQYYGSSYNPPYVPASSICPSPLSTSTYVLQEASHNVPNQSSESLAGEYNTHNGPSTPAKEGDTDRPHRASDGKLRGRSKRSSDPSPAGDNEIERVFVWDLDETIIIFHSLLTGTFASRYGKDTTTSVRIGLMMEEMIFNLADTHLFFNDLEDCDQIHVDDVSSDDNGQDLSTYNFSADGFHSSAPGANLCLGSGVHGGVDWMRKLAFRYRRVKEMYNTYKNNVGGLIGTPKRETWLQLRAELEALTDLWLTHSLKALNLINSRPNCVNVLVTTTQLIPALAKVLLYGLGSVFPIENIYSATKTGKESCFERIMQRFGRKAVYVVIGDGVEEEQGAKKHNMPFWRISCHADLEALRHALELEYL
Target sequence (Q15475 whole entry, looked up): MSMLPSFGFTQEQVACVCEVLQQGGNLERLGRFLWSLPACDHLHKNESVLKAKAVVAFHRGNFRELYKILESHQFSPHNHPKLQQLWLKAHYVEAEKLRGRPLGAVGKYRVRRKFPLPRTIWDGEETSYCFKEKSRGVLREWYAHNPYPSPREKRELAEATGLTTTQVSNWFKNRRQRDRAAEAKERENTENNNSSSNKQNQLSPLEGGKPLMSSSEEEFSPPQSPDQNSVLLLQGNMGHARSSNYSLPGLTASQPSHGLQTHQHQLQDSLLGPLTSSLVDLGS
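GST-Six1 + His-Eya2 (5X stock: 250/500 nM); Tris pH 8.0, 300 mM NaCl, 0.05% BSA, 0.02% Tween 20; GSH donor/Ni acceptor beads; 1 h 37 °C dark; AlphaScreen readout.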
TRPML1 ag = qHTS for Agonists of the Human Mucolipin Transient Receptor Potential 1 (TRPML1) | Mucolipin-1 (Homo sapiens), Q9GZU1 | TRPML1-expressing cells, Ca2+ dye fluorescence, FDSS; host cell line not named in the record; reference of the full effect not given here | activation, % (no concentration beside the values) | 0.12% of 410,000 active; in the data active = activation above about 50%; inconclusive = about 30% to 50%; inactive = below about 30%; further: 0% is about no effect; the text of the record puts the active cut at 80%
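Agonist activity was taken from a 110 s kinetic Ca2+ dye read on the FDSS after pinning compounds onto TRPML1-DL cells. The cells were seeded at 1,500/well with Tet inducer, incubated about 16 h, then dye-loaded at room temperature.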
TRPML1 inh = qHTS for Inhibitors of the Human Mucolipin Transient Receptor Potential 1 (TRPML1); Mucolipin-1 (Homo sapiens), Q9GZU1; TRPML1-inducible cells, Ca2+ dye fluorescence, FDSS; hits give low values; inhibition of EC80 agonist-evoked calcium signal; activity change, negative = inhibition, % (concentration not given with the values); 0.02% of 390,000 active; AID 624415, 2012; in the data active means activity change below about -50%; inconclusive means about -30% to -50%; inactive means above about -30%;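 further: stimulus is agonist 54-4 at its EC80 concentration; on the % scale 0 is the no-effect control and ±100 the full control effect; compound concentration not given in the record; the text of the record puts the active cut at -80%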
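Tet-induced TRPML1-DL cells loaded with Ca8 no-wash calcium dye were read kinetically on FDSS. Compound addition was followed by EC80 agonist 54-4 (4 uM final); inhibition was read over 110 s.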
D2 agonist = Beta-Arrestin HTS for Positive Allosteric Modulators of the Human D2 Dopamine Receptor: Agonists. D(2) dopamine receptor (Homo sapiens), P14416. DiscoveRx PathHunter D2 beta-arrestin, luminescence, 90 min; 100% = 57 uM dopamine signal. activation, % (concentration not given with the values). 0.084% of 360,000 active. AID 624465, 2012; in the data active = activation above about 40%; inconclusive = about 15% to 40%; inactive = below about 15%; further: compound concentration not given in the record; the text of the record calls up to 30% inactive
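DiscoveRx PathHunter D2 beta-arrestin cells (2,100/well) attached overnight, then compound-stimulated 90 min at 37 C in HBSS/10 mM HEPES/0.1% Tween-20 buffer; beta-galactosidase complementation read by luminescence after 1 h at ambient temperature. Dopamine 57 uM final (EC100) as control.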
D2 potentiator = Beta-Arrestin HTS for Positive Allosteric Modulators of the Human D2 Dopamine Receptor: Potentiators; DiscoveRx D2 beta-arrestin cells, luminescence, 90 min; 100% = 57 uM dopamine signal; potentiation, % (concentration not given with the values); 0.23% of 360,000 active; AID 624464, 2012; active = potentiation of 50% or more; inconclusive = 30% to 50%; inactive = 30% or less;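 further: compound concentration not given in the record; tested on top of an EC20 dose of dopamine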
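D2 cells co-treated with compound plus 50 nM dopamine (EC20) for 90 min at 37 deg C to detect potentiation. Beta-arrestin recruitment was read as enzyme-fragment luminescence after 1 h at ambient temperature. Full response was set by 57 uM dopamine.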
An asterisk follows results filed as active; ? = inconclusive; / = not tested or not shown; & = joins results of further samples; [ ] = another dose, or the depositor's remark.

Order of results: PINK1 expr mod	Six1-Eya2 inh	TRPML1 ag	TRPML1 inh	D2 agonist	D2 potentiator
- CSc1ccc(S(=O)(=O)NCC(=O)OCC(=O)N(C)C2CCCCC2)cc1[N+](=O)[O-]
→ -6.6%	-2	0.4	7	-2.0	-8
- S=C(NCCc1ccccc1)N1CCN(C(=S)NCCc2ccccc2)CC1
→ 0.3%	8	-0.1	5	-6.3	-4
- CC(=O)OC[C@H]1O[C@@H](Sc2cccc3cccnc23)[C@H](OC(C)=O)[C@@H](OC(C)=O)[C@H]1OC(C)=O
→ -0.3%	0	0.2	-1	-2.4	-5
- O=C(Nc1ccccc1O)/C(=C\c1ccccc1)NC(=O)c1ccccc1
→ -0.9%	1	0.2	12	9.0	-20
- COC(=O)CC1=C(C(=O)OC)C(c2ccc3c(c2)OCO3)C(C#N)=C(N)O1 (configuration not stated)
→ -2.0%	2	0.1	4	1.4	2
- COc1cc(OC)nc(S(C)(=O)=O)n1
→ -1.5%	2	-0.1	-12	-0.8	-1
- O=C(NCc1cccs1)c1ccc2c(=O)n3nc(Nc4ccccc4)sc3nc2c1
→ 2.0%	/	1.1	-3	/	/
- Cc1ccc(S(=O)(=O)N2CCOCC2)cc1C(=O)Nc1nc2ccccc2[nH]1
→ 0.7%	-13	-0.4	-1	-0.4	9
- Cc1cc2c(cc1C)NC(c1c(C)n(C)n(-c3ccccc3)c1=O)C1=C(CC(C)(C)CC1=O)N2 (configuration not stated)
→ -0.7%	-2	?	10	-19	-70
- CC(Nc1ncnc2nc[nH]c12)c1ccccc1 (configuration not stated)
→ 0.9%	0	-1.0	2	-3.8	-6
- CCOC(=O)c1c(C)[nH]c(NC(=O)Nc2c(C)n(C)n(-c3ccccc3)c2=O)c1C
→ -0.5%[38.3 µM]	-3	0.2	-9	-1.2	-7
- Cc1ccc(S(=O)(=O)N(CC(=O)Nc2ccccc2C(=O)O)c2ccccc2C)cc1
→ 0.6%	1	0.5	3	-0.2	12
- CC(C)CCC1(CCNC(=O)c2cccs2)CCOC(C)(C)C1 (configuration not stated)
→ 1.0%	-5	0.5	-9	-20	-17
- CCN=C1SC(C(=O)Nc2cccc(C)c2)CC(=O)N1CC (configuration not stated)
→ -2.0%	-3	-1.2	5	-4.0	-10
- N#Cc1c(-c2ccccc2)[nH]c(=S)[nH]c1=O
→ /	4	-0.2	-5	-2.5	-19
- O=C(Nc1ccc(Cl)cc1)N1CCC(CN2CCCC2)CC1
→ -1.8%	/	1.4	-9	/	/
- CNC(=O)c1ccc(-n2nc(C)cc2-c2ccccc2)cc1
→ 1.3%	3	-0.2	8	-3.9	-1
- CCOC(=O)c1c(C)n(S(=O)(=O)c2ccc(C)cc2)c2ccc(NS(=O)(=O)c3ccc(C)cc3)cc12
→ 0.9%	/	-0.3	-1	/	/
- OC[C@H]1OC(O)[C@@H](O)[C@@H](O)[C@@H]1O (some centres not stated)
→ 0.9%	5	1.6	7	-0.3	0
- CCC(CC)C(=O)c1c[nH]c(C(=O)NCc2ccncc2)c1
→ -1.5%	9	-0.6	9	3.3	-19
- CCCCn1c(N)c(N(Cc2ccccc2OC)C(=O)COc2ccc(C)cc2)c(=O)[nH]c1=O
→ 1.1%	3	1.6	23	4.0	14
- CCc1cc(=O)oc2c(CN3CCN(C)CC3)c(O)c(Cl)cc12
→ 2.3%[38.3 µM]	1	-0.2	-8	3.6	8
- C=CCNC(=O)C1CC(=O)N(c2ccc(OCc3ccc(F)cc3)cc2)C1 (configuration not stated)
→ -0.8%	-5	0.2	3	-0.4	0
- CCN1CCN(C(C(=O)NC2CCCC2)c2ccc(Cl)cc2)CC1 (configuration not stated)
→ 0.3%	1	-0.3	15	-4.2	-5
- CS(=O)(=O)c1ccc(-c2csc(-c3cccnc3)n2)cc1
→ 2.2%	0	0.8	-1	-5.3	-10
- CC1(CCc2ccccc2)NC(=O)N(CC(=O)N2CCc3ccccc32)C1=O (configuration not stated)
→ 0.7%	3	-0.6	11	-1.5	-13
- CN1CCN(C(=S)Nc2ccc(Cl)cc2)CC1
→ -2.2%	7	2.7	2	-4.5	-4
- CCC(C)NC(=O)CCC(=O)N1Cc2ccccc2Oc2ncccc21 (configuration not stated)
→ 0.7%	/	-0.3	38	/	/
- CC(=O)c1cccc(NC(=O)CCS(=O)(=O)c2cc3c(cc2C)NC(=O)CO3)c1
→ -0.4%&0.1%	-5	0.5&4.1	34&11	0.7	-5
- CCc1c(C)nc2cc(-c3cc(OC)cc(OC)c3)nn2c1N1CCN(CCN2CCOCC2)CC1
→ 4.4%	-6	-0.4	-5	-0.6	-5
- CCOC(=O)N1CCC(Nc2c(Nc3cccc(CC)c3)c(=O)c2=O)CC1
→ -2.7%[38.3 µM]	-14	0.1	-3	-1.5	-17
- c1ccc(CCN2CCN=C2Nc2ccccc2)cc1
→ -0.1%	-2	1.0	8	-2.3	-18
- Cc1cc2oc(=O)cc(CN3CCCC3)c2cc1Cl
→ 2.4%	-7	-0.6	-6	7.2	10
- CCOC(=O)C1(C)CCN1C(=O)c1ccco1 (configuration not stated)
→ 0.3%	5	-0.4	/	-6.7	-7
- O=C(COC(=O)C1CCC(=O)N1)Nc1ccc(Br)cc1 (configuration not stated)
→ 0.0%	10	1.4	-7	-1.1	-14
- CSC1=NC(C(Cl)(Cl)Cl)N=C(c2ccccc2)N1 (configuration not stated)
→ 15%	5	1.1	3	-2.8	-5
- CCOCCn1c(SCCCc2ccccc2)nc2c1c(=O)[nH]c(=O)n2C
→ -1.8%	0	5.9	-19	0.6	14
- CCCCCc1c(-c2ccc(F)cc2F)ncn1CCc1ccccc1OC
→ -1.1%	-5	1.9	/	/	/
- Cc1cccc(C(=O)OCC(=O)N2CCN(C(=O)c3ccco3)CC2)c1O
→ -0.9%	-1	0.3	18	-0.3	0
- C=CCc1ccc(OCCCCOc2ccc(C(=O)O)cc2)c(OC)c1
→ -1.3%	1	0.5	9	-2.5	-6
- COc1ccc(CNC(=O)CN(C(=O)CCC(=O)Nc2nccs2)c2ccc(C)cc2)cc1
→ -0.2%	-1	1.6	3	-0.5	-6
- COc1cc2c(cc1OC)CN(S(=O)(=O)c1ccc(Cl)nc1)CC2
→ 27%	-4	0.0	-8	-7.7	-14
- COCCNc1nc(-c2ccc(OC)cc2)c(-c2ccc(OC)cc2)s1
→ 25%	-13	3.2	17	-2.0	-11
- Cc1cccc(C)c1NC(=O)CN(C)C(=O)c1ccc(OCc2ccccc2)cc1
→ 0.4%	1	-0.6	11	-0.5	6
- CCOC(=O)c1cc2n(n1)C(C(F)(F)F)CC(C)N2 (configuration not stated)
→ 0.2%	2	-0.8	-16	-1.6	2

Ten entries from above, sorted by number of heavy atoms, lowest first:
Order of results: PINK1 expr mod	Six1-Eya2 inh	TRPML1 ag	TRPML1 inh	D2 agonist	D2 potentiator
- CCOC(=O)C1(C)CCN1C(=O)c1ccco1 (configuration not stated)
→ 0.3%	5	-0.4	/	-6.7	-7
- CSC1=NC(C(Cl)(Cl)Cl)N=C(c2ccccc2)N1 (configuration not stated)
→ 15%	5	1.1	3	-2.8	-5
- CCOC(=O)c1cc2n(n1)C(C(F)(F)F)CC(C)N2 (configuration not stated)
→ 0.2%	2	-0.8	-16	-1.6	2
- c1ccc(CCN2CCN=C2Nc2ccccc2)cc1
→ -0.1%	-2	1.0	8	-2.3	-18
- COc1cc2c(cc1OC)CN(S(=O)(=O)c1ccc(Cl)nc1)CC2
→ 27%	-4	0.0	-8	-7.7	-14
- C=CCc1ccc(OCCCCOc2ccc(C(=O)O)cc2)c(OC)c1
→ -1.3%	1	0.5	9	-2.5	-6
- CCOC(=O)N1CCC(Nc2c(Nc3cccc(CC)c3)c(=O)c2=O)CC1
→ -2.7%[38.3 µM]	-14	0.1	-3	-1.5	-17
- CCCCCc1c(-c2ccc(F)cc2F)ncn1CCc1ccccc1OC
→ -1.1%	-5	1.9	/	/	/
- Cc1cccc(C)c1NC(=O)CN(C)C(=O)c1ccc(OCc2ccccc2)cc1
→ 0.4%	1	-0.6	11	-0.5	6
- COc1ccc(CNC(=O)CN(C(=O)CCC(=O)Nc2nccs2)c2ccc(C)cc2)cc1
→ -0.2%	-1	1.6	3	-0.5	-6

The results go on.
Order of results: PINK1 expr mod	Six1-Eya2 inh	TRPML1 ag	TRPML1 inh	D2 agonist	D2 potentiator
- Cc1ccc(S(=O)(=O)N2CC(O)C[C@H]2C(=O)OCC(=O)c2ccccc2)cc1 (some centres not stated)
→ 0.3%	-6	2.3	-12	-1.2	12
- CCOC(=O)N1CCC(NC(=O)c2cnn(-c3cccc(Cl)c3C)c2C2CCN(C(=O)OC(C)(C)C)CC2)CC1
→ 1.4%	/	1.1	-21	/	/
- CN=C1SC(CC(=O)Nc2sc(C)c(C)c2C(=O)OC)C(=O)N1C (configuration not stated)
→ /	4	-0.1	-2	0.1	10
- O=C(CSC1CCCCC1)Nc1nccs1
→ -1.2%	6	-0.5	2	-8.6	-15
- CC1(C)CC(NC(=O)C2CCCCC2C(=O)O)CC(C)(C)N1 (configuration not stated)
→ -0.7%	-1	-0.1	-20	-0.9	1
- O=C(COc1ccc(Cl)cc1Cl)NC(=O)N1CCCCC1
→ /	1	0.0	-7	0.6	-15
- Cc1ccc(NC(=O)c2ccc(-c3cc(Cl)ccc3Cl)o2)c(C)c1
→ 2.5%	-28	1.3	-1	-2.2	-8
- CCOc1cccc(Nc2cc3n(c(=O)n2)CCc2cc(OC)c(OC)cc2-3)c1
→ /	1	-0.3	5	-0.7	3
- CC1=C(C(=O)Nc2ccccn2)C(c2cn(C)nc2C)C2=C(CCCC2=O)N1 (configuration not stated)
→ 0.4%	4	-0.4	15	-2.8	?
- CN(C)c1ncc(CN2CCC(CO)(CCCc3ccccc3)CC2)s1
→ -0.5%	-3	-0.1	0	12	-7
- CCCCc1nnc(NC(=O)C23CC4CC(CC(NC(C)=O)(C4)C2)C3)s1
→ -0.6%	0	4.9	-5	-1.7	-17
- CCOC(=O)c1c(C)c(C(=O)N2CCN(c3ccc(F)cc3)CC2)c(C)n1C
→ 1.7%	-11	5.3	9	0.6	-2
- CCOc1ccccc1C1C(C(=O)Nc2ccccc2OC)=C(C)Nc2nc(CCCO)nn21 (configuration not stated)
→ -0.4%	-3	-1.1	1	-8.4	-5
- COc1ccc(NC(=O)C2(C)Cc3c(-c4cccc(NC(C)=O)c4)ccnc3O2)cc1OC (configuration not stated)
→ 2.2%	-4	-0.9	/	-1.0	-5
